HCMV UL50-53 inh: inhibitors of HCMV UL50-UL53 nuclear egress complex interaction; HTRF UL50-UL53 interaction, normalized percent inhibition; inhibition, % (no concentration beside the values); 190,000 compounds, 0.15% hits;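 active = both replicates at 50% or more, plus weaker picks with an unusually low signal ratio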;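 also: stock transfer was 100 nL into about 20 µL; 0% = negative control wells and 100% = wells with untagged competitor protein; inactives centre near -12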
GIV Gai3 FP: inhibitors of GIV GBA-motif binding to rat Galpha-i3; Galpha-i3/FITC-GIV peptide fluorescence polarization, 90 min; stronger effect = lower value; scaled: aluminum fluoride 0%, vehicle 100%; AID 1224905; P08753; percent of control (FP), % (test concentration not listed); 210,000 compounds, 0.42% hits;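 active = replicate mean at 85% of control or lower, very high polarization wells dropped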;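 also: wells of about 15 µL received 100 nL stock; the first replicate is given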
Target sequence (P08753 whole entry, looked up): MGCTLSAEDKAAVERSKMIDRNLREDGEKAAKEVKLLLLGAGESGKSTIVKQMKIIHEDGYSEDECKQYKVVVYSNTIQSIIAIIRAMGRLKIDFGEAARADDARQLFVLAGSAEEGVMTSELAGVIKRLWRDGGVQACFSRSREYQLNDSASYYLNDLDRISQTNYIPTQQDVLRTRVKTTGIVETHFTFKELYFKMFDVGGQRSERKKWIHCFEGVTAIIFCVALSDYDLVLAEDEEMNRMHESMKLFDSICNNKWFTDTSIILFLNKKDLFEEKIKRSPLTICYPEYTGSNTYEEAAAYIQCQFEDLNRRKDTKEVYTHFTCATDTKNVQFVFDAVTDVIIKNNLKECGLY
Sa growth inh: S. aureus growth inhibition. S. aureus RN4220 growth, OD600, 20 h, 42 °C; stronger effect = lower value. relative growth, % (test concentration not listed). 170,000 compounds, 0.53% hits. AID 720641;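 active = growth at 42 °C up to 50% and 20 or more points under that at 30 °C, or under 10% at both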;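 also: 300 nL library stock went into each well; scaled to the means of positive and negative controls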
Sa growth inh second temp: also measured in Sa growth inh; calls as there; relative growth, %; measured here: growth at 30 °C;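 optical density after 20 h as mean of two plates; 100% = untreated growth and lower means inhibition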
Numbers without * were called inactive; · = no result given; & = joins results of further samples.

Labels used below: A = HCMV UL50-53 inh; B = GIV Gai3 FP; C = Sa growth inh; D = Sa growth inh second temp
CC(SCc1ccccc1)C(=O)NN=C1CCN(C)CC1 (stereo not drawn)
  A: -1; B: 90; C: 95; D: 112
O=c1c2ccccc2n(Cc2c(F)cccc2Cl)c(=O)n1Cc1ccccc1
  A: 4; B: 101; C: 99; D: 93
O=C(Nc1ccnn1C1CCCC1)c1ccc(-n2cccn2)cc1
  A: -16; B: ·; C: 74; D: 86
COc1cc(C(=O)Nc2ccc3oc(-c4ccccc4)nc3c2)cc(OC)c1OC
  A: -7; B: 102; C: 100; D: 70
O=C1CCSc2ccc(S(=O)(=O)Nc3ccc(Cl)c(C(F)(F)F)c3)cc2N1
  A: ·; B: 106; C: 82; D: 56
CCc1ccccc1NC(=O)Nc1cc(C(=O)NCc2ccc(OC)cc2)ccc1N1CCCC1
  A: ·; B: 105; C: 103; D: 91
Cc1cccc(OCC(=O)Nc2cccc(C(=O)OCc3cc(=O)n4nc(C(C)C)sc4n3)c2)c1
  A: ·; B: 102; C: 73; D: 93
COc1cc(NC(=O)CSc2nc3nc(C)c(Cc4ccccc4)c(C)n3n2)cc(OC)c1
  A: ·; B: 108; C: 122; D: 96
C=CCn1c(COc2ccccc2)nnc1SCC(=O)N1CCc2ccccc21
  A: 2; B: 110; C: 107; D: 99
C=CCSc1ncc(Cl)c(C(=O)Nc2ccc(OC)cc2OC)n1
  A: -21; B: 103; C: 101; D: 88
CCOc1ccc(CC(=O)Nc2cccc(-c3ccc(N4CCOCC4)nn3)c2)cc1
  A: 4; B: 104; C: 89; D: 99
S=c1[nH]c2c(n1-c1ccccc1)CCCC2
  A: 0; B: ·; C: 70; D: 92
COc1ccc2cc3cc(C(=O)NCCN4CCN(Cc5ccccc5)CC4)oc3nc2c1
  A: -79; B: 98; C: 96; D: 97
O=C(O)COc1ccc(C(=O)c2ccccc2)cc1
  A: 15; B: ·; C: 98; D: 103
Cc1noc(Cn2c(=O)c3ccccc3n(CC(=O)NCc3ccccc3)c2=O)n1
  A: -5; B: 105; C: ·; D: ·
COCC(=O)N(CCc1ccccc1)Cc1cc2cccc(C)c2n2nnnc12
  A: -3; B: 100; C: 89; D: 80
Cc1c(Cl)cccc1NS(=O)(=O)c1cc2c3c(c1)C(C)C(=O)N3CCC2 (stereo not drawn)
  A: -17; B: 94; C: 101; D: 72
Cc1ccc(NC(=O)CSc2nc(-c3ccc(F)cc3)cc(C(F)(F)F)c2C#N)cc1
  A: -30; B: 109; C: 105; D: 90
Cc1ccc2c(c1)NC(C(=O)Nc1ccc(Br)c(C)c1)NS2(=O)=O (stereo not drawn)
  A: -30; B: 103; C: ·; D: ·
CCN(CC)c1ccc(NC(=O)c2c(C)nn(-c3ccc(F)cc3)c2-n2cccc2)c(C)c1
  A: ·; B: 105; C: 107; D: 100
CCCNCc1nc(-c2ccc(Cl)cc2)no1
  A: -22; B: 110; C: 112; D: 89
Cc1ccc(C2CC(=O)C=C(Nc3ncn[nH]3)C2)cc1 (stereo not drawn)
  A: -10; B: 100; C: 87; D: 90
CCn1c(=O)cc(C(=O)OC)sc1=Nc1ccc(F)cc1
  A: -27; B: 97; C: 79; D: 57
COC(=O)c1cccc(NC(=O)Cc2csc(C)n2)c1
  A: -17; B: 104; C: 96; D: 85
c1ccc(-c2nnc(N3CCc4ccccc43)nc2-c2ccccc2)cc1
  A: -15; B: 106; C: 83; D: 82
Cc1ccc2c(Cl)cc(Cl)c(OCC(=O)OCC(=O)Nc3ccc4c(c3)OCO4)c2n1
  A: -26; B: ·; C: 103; D: 80
O=C(CSc1ccccc1)Nc1ccc2[nH]c(=O)[nH]c2c1
  A: 11; B: 98; C: 91; D: 80
N#Cc1ccccc1OC(=O)CCN1C(=O)c2ccccc2C1=O
  A: -34; B: ·; C: 103; D: 93
O=C(c1ccccc1)c1ccc2ccccc2n1
  A: 0; B: 100; C: 98; D: 90
FC(F)(F)c1ccn(-c2ncnc3scc(-c4ccccc4)c23)n1
  A: ·; B: 99; C: 110; D: 87

Shown with values under each structure: 5 of the compounds above
Below each SMILES – HCMV UL50-53 inh	GIV Gai3 FP	Sa growth inh	Sa growth inh second temp
- COC(=O)c1cccc(NC(=O)Cc2csc(C)n2)c1
  -17	104	96	85
- Cc1c(Cl)cccc1NS(=O)(=O)c1cc2c3c(c1)C(C)C(=O)N3CCC2 (stereo not drawn)
  -17	94	101	72
- CCCNCc1nc(-c2ccc(Cl)cc2)no1
  -22	110	112	89
- Cc1ccc2c(Cl)cc(Cl)c(OCC(=O)OCC(=O)Nc3ccc4c(c3)OCO4)c2n1
  -26	·	103	80
- Cc1ccc(NC(=O)CSc2nc(-c3ccc(F)cc3)cc(C(F)(F)F)c2C#N)cc1
  -30	109	105	90

(list continues)
Labels used below: A = HCMV UL50-53 inh; B = GIV Gai3 FP; C = Sa growth inh; D = Sa growth inh second temp
Cc1ccc(-c2nc3sccn3c2Nc2ccccc2C)cc1
  A: -2&-8; B: 106&103; C: 105; D: 87
Cc1cc(C)c(NC(=O)CN2c3ccccc3S(=O)(=O)c3ccccc32)c(C)c1
  A: ·; B: 100; C: 114; D: 97
Cc1cc(C(=O)COC(=O)c2cc(S(=O)(=O)N(C)C)ccc2N2CCCC2)c(C)n1C1CC1
  A: -8; B: ·; C: 114; D: 97
O=S(=O)(NCc1ccc(-c2cccs2)s1)c1ccc(N2CCOCC2)nc1
  A: -10; B: 105; C: 109; D: 96
Cn1nnn(CN2CCc3ccccc3C2)c1=S
  A: -27; B: ·; C: 105; D: 95
OC(c1ccccc1)(c1ccccc1)C1CCN(C(=S)NCCc2ccccc2)CC1
  A: ·; B: 99; C: 139; D: 70
Cc1nc(C)c(-c2ccn(C(=O)Nc3c(-c4c(Cl)cccc4Cl)noc3C)n2)s1
  A: -16; B: 106; C: 101; D: 92
O=C1Nc2ccccc2C1(O)c1c[nH]c2ccccc12 (stereo not drawn)
  A: -24; B: 105; C: 88; D: 67
Cc1ccc(C(=O)c2ccc(C)c(C)c2)cc1C
  A: ·; B: 98; C: 109; D: 92
O=C1CCC(=O)N1CCSCc1cccc(C(F)(F)F)c1
  A: 6; B: 97; C: 100; D: 115
COc1ccc(CNC(=O)C2CCCN2)cc1OC (stereo not drawn)
  A: -6; B: 108; C: 117; D: 101
N#Cc1cc2c(cc1C#N)N1CCCc3cccc(c31)O2
  A: -27; B: 103; C: 102; D: 87
Cc1onc(-c2ccccc2)c1NC(=O)N1CCN(C2c3ccccc3-c3ccccc32)CC1
  A: -14; B: 109; C: 104; D: 94
CN=c1sc2ccccc2n1CC(O)c1ccccc1 (stereo not drawn)
  A: 8; B: 106; C: 110; D: 73
O=C(Nc1ccc(Cl)cc1)C1CCCN1S(=O)(=O)c1cccc2cccnc12 (stereo not drawn)
  A: -16; B: 96; C: ·; D: ·

Next section, starting with the last 7 of the part before.
Labels used below: A = HCMV UL50-53 inh; B = GIV Gai3 FP; C = Sa growth inh; D = Sa growth inh second temp
Cc1ccc(C(=O)c2ccc(C)c(C)c2)cc1C
  A: ·; B: 98; C: 109; D: 92
O=C1CCC(=O)N1CCSCc1cccc(C(F)(F)F)c1
  A: 6; B: 97; C: 100; D: 115
COc1ccc(CNC(=O)C2CCCN2)cc1OC (stereo not drawn)
  A: -6; B: 108; C: 117; D: 101
N#Cc1cc2c(cc1C#N)N1CCCc3cccc(c31)O2
  A: -27; B: 103; C: 102; D: 87
Cc1onc(-c2ccccc2)c1NC(=O)N1CCN(C2c3ccccc3-c3ccccc32)CC1
  A: -14; B: 109; C: 104; D: 94
CN=c1sc2ccccc2n1CC(O)c1ccccc1 (stereo not drawn)
  A: 8; B: 106; C: 110; D: 73
O=C(Nc1ccc(Cl)cc1)C1CCCN1S(=O)(=O)c1cccc2cccnc12 (stereo not drawn)
  A: -16; B: 96; C: ·; D: ·
O=S(=O)(NCCNc1ncnc2scc(-c3ccccc3)c12)c1ccc(Cl)cc1
  A: -17; B: 106; C: 87; D: 81
CS(=O)(=O)N1CCN(C(=O)COc2ccc(F)c(Cl)c2)CC1
  A: -1; B: 107; C: 110; D: 103
COc1ccc(S(=O)(=O)NCC(c2ccc(N(C)C)cc2)N2CCc3ccccc32)cc1OC (stereo not drawn)
  A: ·; B: 101; C: 107; D: 87
CCC(C)n1c(=O)[nH]c2c(c1=O)CCC2 (stereo not drawn)
  A: -6; B: 107; C: 103; D: 84
CN1C2CCC1CC(NC1CC3CCC(C1)N3C)C2 (stereo not drawn)
  A: -9; B: 99; C: 75; D: 101
CCCc1nc2c(c(=O)n1CC(=O)NC(C)(C)C)CCN(Cc1ccccc1)C2
  A: -2; B: 107; C: ·; D: ·
O=C(CSc1nnc(-c2ccc(F)cc2)o1)N1CCCc2ccccc21
  A: -6; B: 102; C: 103; D: 79
CCc1ccc(NC(=O)N2CCC3(CC2)OCCO3)cc1
  A: -39; B: 97; C: 102; D: 101
COC(=O)CC1SC(=O)NC1=O (stereo not drawn)
  A: 3; B: 100; C: ·; D: ·
CCOC(=O)Cc1ccc(NC(=O)N2CC(CC)Oc3ccc(C)cc32)cc1 (stereo not drawn)
  A: -7; B: 96; C: ·; D: ·
O=C(NCCO)c1ccc(OC2OCCOC2Oc2ccc(C(=O)NCCO)cc2)cc1 (stereo not drawn)
  A: 4; B: ·; C: 104; D: 90
CN(c1ccc(OCC(=O)N2CCOCC2)cc1)S(=O)(=O)c1cccs1
  A: -6; B: ·; C: 87; D: 90
Cc1ccc(N(CC(=O)NCCc2ccccc2C)S(=O)(=O)N(C)C)cc1
  A: -21; B: 99; C: 94; D: 88
O=C(CN1N=C(c2ccc(Cl)cc2)CCC1=O)NCCc1ccccc1
  A: ·; B: 104; C: 114; D: 94
COc1ccc2nc(N3CCN(C(=O)CS(=O)(=O)c4ccc(C)cc4)CC3)sc2c1
  A: ·; B: 102; C: 93; D: 89
CCN(C(=O)CSc1ccc(S(=O)(=O)N(C)C)cn1)C1=CCCC1
  A: -6; B: ·; C: 94; D: 89
O=C(CN1CCN(C(=O)Nc2ccccc2)CC1=O)NCc1ccccc1
  A: -7; B: 101; C: ·; D: ·
CN1c2ccccc2-c2nc(SCC(=O)Nc3ccccc3)ncc2S1(=O)=O
  A: ·; B: 102; C: 99; D: 87
COc1cccc(CNCc2cccn2-c2nnc(N3CCN(c4ccccc4)CC3)s2)c1
  A: ·; B: 102; C: 71; D: 49
Cc1nn(CC(=O)NCCc2c[nH]c3ccccc23)c(=O)c2noc(C)c12
  A: -17; B: 99; C: ·; D: ·
O=C(NC1CC1)C1CCCCN1S(=O)(=O)c1ccc(F)cc1 (stereo not drawn)
  A: -25; B: 104; C: ·; D: ·
Cc1cc2nc3s/c(=C\c4ccc(-c5ccccc5[N+](=O)[O-])o4)c(=O)n3c2cc1C
  A: -1; B: 105; C: ·; D: ·
Cc1cccc(-c2nc(CSCC(=O)NCCc3ccccc3)c(C)o2)c1
  A: 2; B: 99; C: 95; D: 92
Cc1cc(C)n(-c2ncnc3scc(-c4ccccc4Cl)c23)n1
  A: -6; B: ·; C: 94; D: 100
Cc1c(N2C(=O)CSC2c2ccccc2)c(=O)n(-c2ccccc2)n1C (stereo not drawn)
  A: -3; B: 102; C: 100; D: 88
Cc1ccc(-c2ccc(=O)n(CC(=O)NCCc3ccc(Cl)cc3)n2)cc1
  A: ·; B: 103; C: 103; D: 86
O=C(COc1cc(Cl)ccc1Cl)Nc1ncc(S(=O)(=O)c2ccc([N+](=O)[O-])cc2)s1
  A: -9; B: 101; C: ·; D: ·
COc1ccc(N2CCCCn3c2nc2c3c(=O)[nH]c(=O)n2C)cc1
  A: 4; B: 100; C: ·; D: ·
O=C(c1nn2c(C(F)(F)F)cc(-c3cccs3)nc2c1Br)N1CCCCC1
  A: -20; B: 103; C: ·; D: ·
O=C(NCCN1CCN(c2cccc(Cl)c2)CC1)C1COc2ccccc2C1 (stereo not drawn)
  A: ·; B: 101; C: 79; D: 53
CC1CC(C)CN(C(=O)c2ccc(N3CCCC3=O)cc2)C1 (stereo not drawn)
  A: -5; B: 108; C: 88; D: 99
CCSc1nn(C)c2nc3c(c(=O)n12)C(C)(C)Cc1ccccc1-3
  A: -20; B: 99; C: ·; D: ·
COc1cc(/C=C2\C(=O)NC(=S)N(c3ccc(F)cc3)C2=O)ccc1OCC(=O)O
  A: -26; B: 104; C: ·; D: ·
CCN(CC)c1nn2c(=O)c(C(=O)NCCc3ccccc3)cnc2s1
  A: ·; B: 98; C: 94; D: 88
Cc1ccnc(NC(=O)Cc2ccc(F)cc2)n1
  A: 0; B: 103; C: 104; D: 79
CCOC(=O)c1ccc(Nc2nc(Nc3ccc(C(=O)OCC)cc3)nc(N3CCOCC3)n2)cc1
  A: 12; B: 107; C: 96; D: 95
O=S(=O)(c1ccc2c(c1)CCN2)N1CCCCCC1
  A: 2; B: 105; C: 102; D: 97
COc1ccc(C2=C(Nc3ccc(C)c(C)c3)c3ccccc3C2=O)cc1
  A: -13; B: 101; C: 103; D: 90
CCOC(=O)C1CCN(c2ncnc3nc[nH]c23)CC1
  A: -28; B: 100; C: 93; D: 83

Bioassay records as filed in PubChem.
